# Screens from PubChem.
# KCNQ2 pot = potentiators of rat KCNQ2 potassium channel. CHO-K1 KCNQ2, FluxOR thallium flux fluorescence; active compounds read high. 0.54% of 310,000 active. AID 2239. B-score at 10 µM;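 active = fluorescence ratio B-score at least 3 SD of library B-scores, with initial fluorescence B-score within 3 SD, cut at about 5.3 in these data; same plate scores as AID 2156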;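 note: B-score of peak minus minimum over baseline fluorescence ratio after K+ and Tl+ stimulus; positive B-score means potentiation of KCNQ2 with more thallium influx and brighter signal; only the inactives scoring about 0 or higher are listed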
# Target sequence (O88943 whole entry, looked up): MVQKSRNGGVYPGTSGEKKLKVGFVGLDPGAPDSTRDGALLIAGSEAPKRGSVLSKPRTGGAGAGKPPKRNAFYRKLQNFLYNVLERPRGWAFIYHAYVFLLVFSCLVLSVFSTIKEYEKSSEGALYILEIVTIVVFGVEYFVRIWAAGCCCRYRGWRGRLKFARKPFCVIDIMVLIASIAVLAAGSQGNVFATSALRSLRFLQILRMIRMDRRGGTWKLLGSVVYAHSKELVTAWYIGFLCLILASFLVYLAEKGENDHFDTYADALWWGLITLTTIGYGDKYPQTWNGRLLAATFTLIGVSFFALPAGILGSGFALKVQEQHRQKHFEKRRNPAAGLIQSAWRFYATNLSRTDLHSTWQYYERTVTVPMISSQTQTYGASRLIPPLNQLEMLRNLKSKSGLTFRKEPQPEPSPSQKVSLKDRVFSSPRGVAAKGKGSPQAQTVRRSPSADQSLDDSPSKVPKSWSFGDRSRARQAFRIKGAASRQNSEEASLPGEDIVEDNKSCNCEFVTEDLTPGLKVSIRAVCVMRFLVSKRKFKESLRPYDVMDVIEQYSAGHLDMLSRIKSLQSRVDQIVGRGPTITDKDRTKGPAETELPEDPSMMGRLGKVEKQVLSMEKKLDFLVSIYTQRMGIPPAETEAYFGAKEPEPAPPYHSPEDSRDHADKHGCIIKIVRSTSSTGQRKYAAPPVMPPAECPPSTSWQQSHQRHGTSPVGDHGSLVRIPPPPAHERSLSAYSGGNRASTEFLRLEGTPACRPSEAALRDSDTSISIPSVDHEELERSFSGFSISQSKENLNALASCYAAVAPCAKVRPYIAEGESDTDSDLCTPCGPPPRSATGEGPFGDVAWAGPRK
# KCNQ2 pot baseline = second read-out of KCNQ2 pot, no call of its own (marks repeat the call); B-score; compound at 10 µM; measured here: initial fluorescence intensity artifact check;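 brightness before thallium and not channel activity; 0 = typical well and far values either way flag optical interference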
# * = called active by the depositor; & = joins results of further samples.
SMILES,KCNQ2 pot,KCNQ2 pot baseline
Cc1ccc(CCNC(=O)CCS(=O)(=O)c2ccc3nc(C)sc3c2)cc1,1.2,-0.48
C/C(=N\NS(=O)(=O)c1ccc(Cl)cc1)c1ccc(O)cc1,0.26,0.03
Cc1cc(=O)oc2cc(NC(=O)CN3C(=O)NC(C)(c4ccccc4)C3=O)ccc12 (stereo not given),0.13,0.34
CC(=O)N1c2ccc(S(=O)(=O)N(C)CC(=O)N(C)Cc3ccccc3)cc2CC1C (stereo not given),2.7,-1.1
CS(=O)(=O)NNC(=O)c1cc2cc3ccccc3nc2s1,0.24,0.43
COc1ccc(-c2cc(-c3nnc(COC(=O)CC4CCCC4)o3)c3ccccc3n2)cc1OC,0.32,-0.67
CCc1ccc(NS(=O)(=O)c2c(C(=O)N3CCOCC3)c(C)n(C)c2C)cc1,2.5,0.27
Cc1cc(C)c(NC(=O)c2cccc(NC(=O)c3ccco3)c2)c(C)c1,2.5,-0.33
O=C(Nc1ccncc1)c1ccc(Cl)c(S(=O)(=O)N2CCCC2)c1,3.2,-0.68
CC(=O)c1c(C)[nH]c(C(=O)COC(=O)C2CC2)c1C,0.1,-1.2
CCCCCCCCCCn1cc(C(C)=O)c(=O)[nH]c1=O,1.4,-0.47
COc1ccc(CN2CCC(C(=O)N(C)CCc3ccc(OC)c(OC)c3)CC2)c(OC)c1,2,-0.53
CNc1c([N+](=O)[O-])cnn1-c1ccccc1Cl,0.27,3.8
Cc1cc(OCC(=O)NCCc2c[nH]c3ccccc23)c2c(C)cc(=O)oc2c1,1.2,-0.87
O=C(O)CCC(=O)Nc1ccc(C(=O)OCC(=O)c2ccc(Cl)cc2)cc1,2,0.06
Cc1nc(SCC(=O)NNC(=O)c2cccs2)[nH]c(=O)c1C,1.1,1
Cc1ccc(SC(C)C(=O)NC(N)=O)c(C)c1 (stereo not given),1.3,-0.69
O=[N+]([O-])c1ccc(C2OCCO2)cc1CS(=O)(=O)c1ccccc1,3,0.35
CNC(=S)N/N=C(\C)c1ccc(Cl)c(Cl)c1,0.46,-1.9
CC[C@@H]1[C@H]2CCCC(=O)N3CC[C@@H](C[C@@H]1OC(=O)Nc1ccccc1)[C@@H]23,0.02,-3.4
Cc1cccc(NC(=O)CSc2nnc(C3CC3)n2CC2CCCO2)c1C (stereo not given),0.36,1.1
Cc1nc2c(C(=O)NCc3ccc4c(c3)OCO4)c[nH]n2c(=O)c1Cc1ccccc1F,2.6,0.12
NS(=O)(=O)c1ccc(NC(=O)CSc2ncccn2)cc1,0.02,-1.3
COc1ccc2oc(=O)c(C(=O)N3CCN(c4ccc(F)cc4)CC3)cc2c1,0.01,-1.1
CCc1ncc(CN2CCC(C(=O)Nc3ccc(-n4nc(C)cc4C)cc3)CC2)cn1,0.04,0.01
CC1=C(C(=O)N2CCOCC2)C(c2ccccc2F)C2=C(CC(C)(C)CC2=O)N1 (stereo not given),0.03,-0.07
CCc1nnc(SCC(=O)Nc2ccc(F)cc2)o1,1.1,-0.01
C/C(Nc1cccc(F)c1)=C(/C#N)C(N)=O,1.4,-1.2
O=C(c1ccccc1)N1CCN(C2CC3CCC2C3)CC1 (stereo not given),0.01,0.02
O=C(COC(=O)CCCOc1ccc(Cl)cc1Cl)Nc1cccc(Cl)c1,0.01,0.18
COc1ccc2cc(-c3[nH]ncc3CN3C[C@@H]4CCC[C@H]3C4)ccc2c1,2.1,-1.6
CC(=O)Nc1ccc(S(=O)(=O)N2CCN=C2C)cc1,0.46,0.22
COc1cc(/C=N/NC(=O)CNc2n[nH]c(=O)[nH]c2=O)ccc1O,1.4,0.53
O=C(NCC(c1cccs1)N1CCOCC1)c1cc(S(=O)(=O)N2CCOCC2)c(Cl)cc1Cl (stereo not given),0.75,0.19
Cc1cc(C)c(O)c(C2(O)C(=O)c3ccccc3C2=O)c1,1.7,1.6
O=C(NNC(=O)c1cccc(S(=O)(=O)N2CCN(c3ccccc3)CC2)c1)c1ccc(Cl)cc1,0.48,-2
Cc1cc(NC(=O)COC(=O)C2CCCN2C(=O)c2cccs2)no1 (stereo not given),0.01,-0.26
COc1ccc(OC)c2c(N3CC(C)OC(C)C3)cc(C(F)(F)F)nc12 (stereo not given),0.8,0.04
COc1cc(C(=O)Nc2ccc3nc(N4CCN(C)CC4)cc(C)c3c2)cc(OC)c1OC,1.4,0
Cc1ccc(C(=O)NCCCN2CCN(CCCNC(=O)c3ccc(C)cc3)CC2)cc1,0.16,-0.96
CSc1ccc(S(=O)(=O)NC(C)c2ccccc2)cc1 (stereo not given),1.2,-1.9
Cc1ccc(Nc2ccc(N3CCN(c4ccc([N+](=O)[O-])cc4)CC3)nn2)cc1,1,2.1
CCOc1ccc(Br)cc1S(=O)(=O)Nc1ccc(Cl)c(S(=O)(=O)N(CC)c2ccccc2)c1,0.03,-3
COc1ccc(-c2nonc2NC(=O)c2oc3ccc(F)cc3c2C)cc1OC,0.02,0.52
O=S(=O)(c1ccccc1F)N1CCN(Cc2nc3ccccc3[nH]2)CC1,0.73,-0.32
C=CCc1ccc2oc(C(=O)OCC)cc(=O)c2c1O,1.3,-0.06
CC(=O)c1cccc(OCC(O)CNCC2CCCCC2)c1 (stereo not given),0.86,-1.1
N#Cc1ccc(C23CC4(C2)[C@H](CN(Cc2ccc(-c5ccccc5)cc2)[C@@H]4c2ccccc2)C3c2ccccc2)cc1 (stereo not given in full),1.1,0.8
C=CCc1c(Cl)nc(C)nc1NCc1ccccc1,0.61,-1.1
CC(C)C(OC(=O)c1cccs1)C(=O)NCCc1ccccc1 (stereo not given),0.03,1.6
CCOc1ccc(N(CC(=O)NCCc2ccccc2)C(=O)c2csnn2)cc1,0.32,1
CCSc1nnc2ccc(-c3ccco3)nn12,1.1,1.3
O=C(O)C1C2C=CC(O2)C1C(=O)NC1CCCc2ccccc21 (stereo not given),1.2,0.04
CCN1CCN(S(=O)(=O)c2cc(C)c(OC)cc2C)CC1,1.6,-0.72
Cc1ccc(-c2csc3nc(SCC(=O)N(C)C)n(Cc4ccccc4)c(=O)c23)cc1,0.03,2
C[n+]1ccn(CC(=O)c2cccs2)c1,1.8,0.36
CC(=O)Nc1ccc(N2CCOCC2)c(C(=O)Nc2cccc(C)c2)c1,0.36,-0.06
COC(=O)CNC(=O)C1CCN(S(=O)(=O)c2cccc3nsnc23)CC1,0.14,1.2
O=C(Nc1cccc(Cl)c1)OCc1cncs1,2.5,-0.01
NC1=NC(c2cn(-c3ccccc3)nc2-c2cccs2)n2c(nc3ccccc32)N1 (stereo not given),1.8,-0.6
# More entries follow:
SMILES,KCNQ2 pot,KCNQ2 pot baseline
O=C(CNC(=O)c1ccc(Br)o1)Nc1cccc(S(=O)(=O)N2CCCC2)c1,1.5,0.01
CC(C)CC(=O)Nc1ncnc2c1C(=O)CC(C)(C)C2,0.27,1
CCC(CC)NC(=O)COn1nnc2ccc(S(=O)(=O)N3CCOCC3)cc21,0.68,0.46
CCn1cc(C(=O)N2CCn3c(nc4ccccc43)C2)c(=O)c2ccc(C)nc21,1.7,1.3
CC(C)(C)OC(=O)N1CCC2(CC1)Oc1ccc(Cl)cc1C(=O)C21CC(c2ccc(Cl)cc2)=NO1 (stereo not given),0.48,0.02
COc1cc(OC)nc(Oc2ccc(N)c(C)c2)n1,0.29,-0.56
CCSc1nnc(-c2cccnc2)n1Cc1ccco1,0.03,2.8
O=C(C1CCCN(Cc2ccccc2F)C1)N1CCCCC1 (stereo not given),0.17,-0.41
O=C(CSc1nnc(-c2ccccc2F)o1)N1CCCC1,1.9,1.8
Nn1c(SCc2cccc3ccccc23)nnc1-c1ccco1,0.43,-1.4
Cc1[nH]c2ccccc2c1C(=O)C(=O)NCCOc1ccccc1,0.51,0.13
O=C(c1ccco1)N(Cc1ccco1)c1ccc(O)cc1,0.86,0.03
N#Cc1ccc(Oc2ccc(NC(=O)C3CC=CCC3C(=O)O)cc2)cc1 (stereo not given),0.19,0.09
Cc1cccc(-c2nnc3n2N=C(c2ccc(Br)cc2)CS3)c1,0.76,-0.61
O=C(CC(=O)N/N=C\c1ccccc1)NCCc1ccccc1,0.04,-1.1
CCOn1c(=O)c(-c2ccc(F)cc2)[n+]([O-])c2ccccc21,1.2,1.1
COc1ccc(N2CCN(C(=O)CCc3nnc4ccc(N5CCC(C)CC5)nn34)CC2)cc1,2.5,-1.8
CCCn1c(=N)c(S(=O)(=O)c2ccc(F)cc2)cc2c(=O)n3ccccc3nc21,0.92,-0.01
CCOC(=O)C(C)n1cnc2c(nnn2-c2cccc(OC)c2)c1=O (stereo not given),1.9,-0.3
Cn1c(CN2CCN(c3ccc(Cl)cc3)CC2)nc2ccccc21,0.08,1.1
O=C(NCc1cccnc1)C(=O)NCC(c1ccco1)N1CCN(c2ccccc2)CC1 (stereo not given),1.1,0.12
O=C(CSc1nc2ccccc2[nH]1)N/N=C/c1ccncc1,0.02,-1.8
COc1ccc(Cl)cc1NC(=O)CSc1nnc(CN2CCOCC2)n1-c1ccc(Cl)cc1,1.2,1.4
COc1ccccc1C(=O)C(O)c1ccccc1OC (stereo not given),1.1,-0.47
CC(=O)NCCNC(=O)[C@H](Cc1ccccc1)NC(=O)c1cccs1,0.08,0.13
CCCCc1ccc(NC(=S)NCCc2ccc(S(N)(=O)=O)cc2)cc1,0.85,0.3
COc1ccc(OCc2nc(N)nc(Nc3ccccc3)n2)cc1,2.7,-0.62
Cc1ccc(S(=O)(=O)N2CCCCC2)cc1NC(=O)Cn1cnnn1,0.01,-0.02
CC[C@@]12C(=O)N(c3cccc(Br)c3)C(=O)N1[C@H](c1ccc(OC)cc1)[C@@H]1C(=O)N(C(C)(C)C)C(=O)[C@@H]12,1.9,-1.7
COc1cc2[nH]c(=S)n(Cc3ccco3)c(=O)c2cc1OC,1.2,-1.5
CCCS(=O)(=O)c1c(S(=O)(=O)CCC)c2ccccn2c1C(=O)OC,1.4,-0.49
Cc1ccnc(NS(=O)(=O)c2ccc(NC(=O)Cc3c(F)cccc3Cl)cc2)n1,0.13,-1.4
Nc1c2c(nc3sc4c(c13)CCCC4)-c1ccccc1CC2,3.6,-0.02
O=C(NCCC1=CCCCC1)C1CCN(S(=O)(=O)c2ccc(Br)s2)CC1,0.23,1.2
NC(=O)C(c1ccc(Cl)cc1)c1ccc(Sc2ccccc2)nn1 (stereo not given),0.68,1.2
CC(C)c1cc(NC(=O)CCl)on1,0.48,0.02
CC(C)COC(=O)c1ccc(NC(=O)C2C3C=CC(C3)C2C(=O)O)cc1 (stereo not given),2.2,0.59
COc1ccc(CCNC(=O)CSc2ccc(-c3ccncc3)nn2)cc1,0.4,-0.12
O=C(NCc1ccccn1)C1CN(S(=O)(=O)c2ccccc2)CCN1S(=O)(=O)c1ccccc1 (stereo not given),0.01,1.8
Cc1ccc(C(CC(=O)O)C2CCOC(C)(C)C2)cc1 (stereo not given),1.1,-3.6
COc1ccc(S(=O)(=O)N(C)c2ccc(C(=O)NCc3ccccn3)cc2)cc1,0.3,-1.4
CCn1nnnc1SCC(=O)N1CCCCC1,2.1,-0.9
NC(=O)C1CCN(C(=O)COc2cccc3ccccc23)CC1,1.6,0.8
CC(C)Oc1ccc(S(=O)(=O)N2CCOCC2)cc1NC(=O)C1CSC2(C)CCC(=O)N12 (stereo not given),0.24,-0.91
CC1CCc2c(sc3ncn(CCO)c(=O)c23)C1 (stereo not given),1.5,1.2
Cn1nc(C(F)(F)F)c(-c2ccc(Br)cc2)c1NC(=O)c1nccnc1C(=O)O,1.5,-0.68
CCCn1nnnc1NC(=O)c1cc(Cl)ccc1Cl,0.15,1.5
CC(C)(C)C1=NN=C2c3ccccc3C(=O)C21 (stereo not given),0.4,-1.2
COc1ccc(Nc2nnc(SCC(=O)/C=C3/N(C)c4ccccc4C3(C)C)s2)cc1,0.12,0.09
Cc1c(Cl)cccc1NC(=O)c1cc(-c2ccco2)on1,0.01,-3.2
CN(C)CCOC(=O)C1(c2ccccc2)CCOCC1,0.08&0.41,0.11&-2.3
COc1cc(/C=C2/SC(=O)NC2=O)ccc1Oc1ccc([N+](=O)[O-])cc1[N+](=O)[O-],0.35,0.71
Cc1ccc(NC(=O)/C(=C/c2ccc([N+](=O)[O-])cc2)NC(=O)c2ccccc2)cc1,1.2,1.1

# Molecules above with two or more sulfur atoms, in the order listed:
SMILES,KCNQ2 pot,KCNQ2 pot baseline
Cc1ccc(CCNC(=O)CCS(=O)(=O)c2ccc3nc(C)sc3c2)cc1,1.2,-0.48
CS(=O)(=O)NNC(=O)c1cc2cc3ccccc3nc2s1,0.24,0.43
Cc1nc(SCC(=O)NNC(=O)c2cccs2)[nH]c(=O)c1C,1.1,1
NS(=O)(=O)c1ccc(NC(=O)CSc2ncccn2)cc1,0.02,-1.3
O=C(NCC(c1cccs1)N1CCOCC1)c1cc(S(=O)(=O)N2CCOCC2)c(Cl)cc1Cl (stereo not given),0.75,0.19
CSc1ccc(S(=O)(=O)NC(C)c2ccccc2)cc1 (stereo not given),1.2,-1.9
CCOc1ccc(Br)cc1S(=O)(=O)Nc1ccc(Cl)c(S(=O)(=O)N(CC)c2ccccc2)c1,0.03,-3
Cc1ccc(-c2csc3nc(SCC(=O)N(C)C)n(Cc4ccccc4)c(=O)c23)cc1,0.03,2
COC(=O)CNC(=O)C1CCN(S(=O)(=O)c2cccc3nsnc23)CC1,0.14,1.2
CCCCc1ccc(NC(=S)NCCc2ccc(S(N)(=O)=O)cc2)cc1,0.85,0.3
CCCS(=O)(=O)c1c(S(=O)(=O)CCC)c2ccccn2c1C(=O)OC,1.4,-0.49
O=C(NCCC1=CCCCC1)C1CCN(S(=O)(=O)c2ccc(Br)s2)CC1,0.23,1.2
O=C(NCc1ccccn1)C1CN(S(=O)(=O)c2ccccc2)CCN1S(=O)(=O)c1ccccc1 (stereo not given),0.01,1.8
CC(C)Oc1ccc(S(=O)(=O)N2CCOCC2)cc1NC(=O)C1CSC2(C)CCC(=O)N12 (stereo not given),0.24,-0.91
COc1ccc(Nc2nnc(SCC(=O)/C=C3/N(C)c4ccccc4C3(C)C)s2)cc1,0.12,0.09

# Not all compounds are listed; count on the stated rates, not on these rows.
